From PubChem BioAssay
HSV augment: enhancers of HSV replication in host cells, fold increase, host cell viability | HSV replication augmentation in cells | maximum fold increase | 220,000 compounds, 0.005% hits | AID 1956, 2009;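 active means peak rise of 1.5-fold or more in the series; tested in PC3 cells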;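 further: first round at 10 µM; read as green reporter fluorescence; hits show the peak of a series up to 25 µM; 1 = signal of infected wells without compound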
INS promoter inh: inhibitors of insulin promoter-driven GFP, primary screen, imaging, TRM-6 cells (human fetal islet line), eGFP reporter, cell count | 130,000 compounds, 0.9% hits | AID 1273, 2008 | reporter expression induced with tamoxifen | inhibition, % at 2 µM;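 active means inhibition above the mean plus 3 SD, with well images judged a real hit on visual review, cut at about 60% in these data, passing the limit was not always enough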
RGS16-Gao HTS: modulators of RGS16 binding to Galphao, primary screen, biochemical, human proteins, multiplexed bead flow cytometry. Regulator of G-protein signaling 16 (Homo sapiens) + Guanine nucleotide-binding protein …. bead-based flow cytometry RGS16-Galphao binding, fluorescence; actives lie on both sides. binding response (% of control), % at 10 µM. 220,000 compounds, 0.38% hits. AID 1441, 2008;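 active means below 25% or above 175%, edge rows of some plates excepted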;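 further: Galphao activated by GDP with aluminum fluoride before binding; 100% = wells without compound and 0% = beads without RGS; some results beyond the cut were filed as inactive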
PKD1 kinase inh: inhibitors of human PKD1 kinase, biochemical, fluorescence polarization; 200,000 compounds, 0.056% hits; AID 797, 2007; PKD1 kinase fluorescence polarization assay; inhibition, %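 (about 10 µM by stock and volumes)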; Serine/threonine-protein kinase D1 (Homo sapiens), Q15139;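 active means inhibition of 50% or more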;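 further: controls were vehicle for no effect and a reference inhibitor for full effect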
Target sequence (Q15139 whole entry, looked up): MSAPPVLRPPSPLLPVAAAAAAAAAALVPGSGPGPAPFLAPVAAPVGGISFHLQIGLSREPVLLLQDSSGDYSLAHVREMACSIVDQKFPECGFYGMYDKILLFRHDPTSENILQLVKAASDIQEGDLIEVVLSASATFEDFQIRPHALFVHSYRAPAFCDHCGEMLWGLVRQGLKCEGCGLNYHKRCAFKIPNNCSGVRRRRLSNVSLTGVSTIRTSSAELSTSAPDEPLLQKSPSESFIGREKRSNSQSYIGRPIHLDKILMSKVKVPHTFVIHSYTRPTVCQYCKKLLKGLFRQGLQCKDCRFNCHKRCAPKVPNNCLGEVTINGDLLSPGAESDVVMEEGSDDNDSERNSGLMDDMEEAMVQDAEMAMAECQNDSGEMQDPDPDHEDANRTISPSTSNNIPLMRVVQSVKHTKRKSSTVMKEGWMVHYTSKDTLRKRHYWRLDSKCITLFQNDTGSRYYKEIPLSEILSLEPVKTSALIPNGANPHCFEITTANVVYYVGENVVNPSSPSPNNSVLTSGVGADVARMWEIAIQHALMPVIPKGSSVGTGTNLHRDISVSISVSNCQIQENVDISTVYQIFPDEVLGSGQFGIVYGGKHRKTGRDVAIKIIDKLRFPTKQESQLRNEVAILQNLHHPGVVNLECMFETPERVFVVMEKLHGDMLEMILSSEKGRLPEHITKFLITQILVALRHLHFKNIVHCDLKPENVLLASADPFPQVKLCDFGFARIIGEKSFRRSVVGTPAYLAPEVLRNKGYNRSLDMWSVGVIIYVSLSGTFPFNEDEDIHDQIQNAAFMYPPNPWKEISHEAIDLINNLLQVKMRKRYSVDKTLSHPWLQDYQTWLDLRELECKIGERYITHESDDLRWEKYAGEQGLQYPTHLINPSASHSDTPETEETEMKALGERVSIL
GALR2 ag: GALR2 receptor agonists, primary screen, cell-based | Galanin receptor type 2 (Homo sapiens), O43603 | GALR2-expressing cells, agonist activation read-out | activation, %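 (tested at 5 µM)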 | 140,000 compounds, 0.48% hits;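 active means above mean plus 3 SD of all compounds, about 5% in these data, not always enough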;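 further: 0% = vehicle buffer wells and 100% = reference agonist at full effect; tested in CHO reporter cells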
INS promoter inh cell count: also measured in INS promoter inh; calls as there; normalized cell count, %; measured here: cell count, toxicity; reference of the scale not given here;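 cells exposed to compound for 48 h; stained nuclei by imaging scaled within each plate; lower means fewer cells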
HSV augment primary fold: also measured in HSV augment; calls as there; fold increase; compound at 10 µM; measured here: primary screen fold increase 10 uM; tested in PC3 cells;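 GFP signal in the first replicate; 1 = infected wells without compound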
The depositor's hits bear a star; i = inactive; · = not tested or not shown. Not a hit list. Share with any hit: about 1.3%.

The opening 5 records, to show the layout:
SMILES | HSV augment primary fold | RGS16-Gao HTS | GALR2 ag | INS promoter inh cell count | HSV augment | INS promoter inh | PKD1 kinase inh
CCOC(=O)Nc1cc(C(=O)OC)ccc1C | 0.86 | 95 | -2.4 | 112 | i | -28 | -3
O=C(NNC(=S)Nc1cccc(C(F)(F)F)c1)c1cccc(Cl)c1 | 1 | 97 | -0.8 | 80 | i | 29 | -5
COc1ccc(NC(=O)CSc2nccn2C)c([N+](=O)[O-])c1 | 1.1 | 107 | · | 116 | i | 30 | -6
CC(=O)N1CCN(c2ccc(NCc3ccccc3)cc2)CC1 | 0.9 | 90 | -1.7 | 95 | i | -9 | 3
CN(C)NC1CC(=O)N(c2ccccc2)C1=O (stereo not drawn) | 1.1 | 102 | · | 101 | i | 50 | -6

This part in full, from the start:
SMILES | HSV augment primary fold | RGS16-Gao HTS | GALR2 ag | INS promoter inh cell count | HSV augment | INS promoter inh | PKD1 kinase inh
CCOC(=O)Nc1cc(C(=O)OC)ccc1C | 0.86 | 95 | -2.4 | 112 | i | -28 | -3
O=C(NNC(=S)Nc1cccc(C(F)(F)F)c1)c1cccc(Cl)c1 | 1 | 97 | -0.8 | 80 | i | 29 | -5
COc1ccc(NC(=O)CSc2nccn2C)c([N+](=O)[O-])c1 | 1.1 | 107 | · | 116 | i | 30 | -6
CC(=O)N1CCN(c2ccc(NCc3ccccc3)cc2)CC1 | 0.9 | 90 | -1.7 | 95 | i | -9 | 3
CN(C)NC1CC(=O)N(c2ccccc2)C1=O (stereo not drawn) | 1.1 | 102 | · | 101 | i | 50 | -6
CC(=O)c1cccc(N(CC(=O)Nc2cc(C)cc(C)c2)S(C)(=O)=O)c1 | 1 | 110 | · | · | i | · | -4
CCOC(=O)N1CCN(C(=O)CSCC(=O)Nc2nc(-c3ccc4c(c3)OCO4)cs2)CC1 | 0.81 | 114 | -1.5 | 105 | i | 21 | 8
CSc1ncccc1C(=O)OCC(=O)Nc1ccc(S(=O)(=O)N2CCCC2)cc1 | · | 103 | -1.2 | 123 | · | 15 | 6
N=c1sccn1CC(=O)Nc1ccc(Cl)cc1[N+](=O)[O-] | 0.85 | 97 | · | · | i | · | ·
COc1ccc(NC(=O)COn2nnc3ccc(Cl)cc32)cc1OC | 0.83 | 103 | -1.4 | · | i | · | -6
CCC(C)C(=O)Nc1cc(C(=O)OC)cc(C(=O)OC)c1 (stereo not drawn) | 0.77 | 100 | -2.3 | · | i | · | 0
CCn1c(-c2csc3c2CCC(C)C3)n[nH]c1=S (stereo not drawn) | 0.99 | 102 | -0.5 | 100 | i | 10 | 3
O=C(NC1CCCCCCC1)c1cc(F)c(F)cc1Cl | 0.96 | 104 | · | 82 | i | -5 | -4
Cc1c(NC(=O)Nc2ccc(Cl)cc2Cl)c(=O)n(-c2ccccc2)n1C | 1 | 99 | · | · | i | · | -7
CCOc1ccc(N(CC(=O)Nc2c(C)n(C)n(-c3ccccc3)c2=O)S(=O)(=O)c2ccccc2)cc1 | 0.87 | 107 | · | · | i | · | -6
COc1ccc2c(c1)c(C(=O)N/N=C/c1cccc(Br)c1)c(C)n2C | 0.79 | 90 | · | · | i | · | ·
CC(O)CNc1nc2c(c(=O)n(C)c(=O)n2C)n1Cc1cccc(C(F)(F)F)c1 (stereo not drawn) | 0.82 | 102 | -1.4 | 115 | i | -94 | 7
Cc1ccc(C(=O)CSc2nnc(-c3cccs3)n2C)o1 | 0.93 | 102 | -1.4 | · | i | · | -3
CCOC(=O)N/N=C1\CC(C)CC(C)(C)C1 (stereo not drawn) | 1 | 102 | -1.3 | 133 | i | 25 | 4
CCOC(=O)N1CCN(C(=O)C2CCN(S(=O)(=O)c3ccccc3)CC2)CC1 | 0.69 | 102 | -1.4 | 81 | i | -23 | 6
COC(=O)[C@@H]1C[C@@]2(O)[C@@H](O)[C@@H](O)[C@@H](O)C[C@H]2N1Cc1ccc(C)s1 | 0.76 | 100 | · | · | i | · | ·
Cc1c(NC2=NC3(CCCCC3)Cc3ccccc32)c(=O)n(-c2ccccc2)n1C | 0.97 | 103 | 0.2 | 142 | i | -13 | -5
Clc1ccc(CSc2cc3c(nn2)-c2ccccc2CC3)cc1Cl | 0.99 | 83 | -2.0 | 118 | i | 3 | -2
CCN(CC)CCN1C(=O)C(=O)/C(=C(/O)c2cnn(-c3ccccc3)c2C)C1c1cccs1 (stereo not drawn) | 0.9 | 100 | -1.1 | · | i | · | -2
Cc1ccc(-n2c(SCC(=O)N(C)C3CCS(=O)(=O)C3)nc3ccccc3c2=O)cc1 (stereo not drawn) | 1.2 | 110 | · | 130 | i | -33 | -6
CCN(C(=S)NC(=O)c1ccccc1Br)C1CCCCC1 | 0.87 | 67 | -0.4 | 134 | i | 8 | 11
COC(=O)c1c(NC(C)=O)sc(C(=O)Nc2ccccc2)c1C | 0.9 | 129 | · | · | i | · | -4
CCOC(=O)C(C)Sc1nc(-c2ccco2)cc(C(F)(F)F)c1C#N (stereo not drawn) | 1.1 | 91 | 0.1 | · | i | · | -4
COc1ccc(NC(=O)CN(c2ccccc2)S(=O)(=O)N(C)C)cc1OC | · | 94 | -2.1 | 75 | · | 50 | -11
C=CCn1c(C(CC(C)C)CC(C)O)n[nH]c1=S (stereo not drawn) | 0.99 | 84 | -0.8 | · | i | · | -6
COc1cccc(N/C(SC)=C(/C#N)C(=O)NCc2cccs2)c1 | 0.93 | 102 | · | 67 | i | -43 | 0
Cc1cc(C)cc(C(=O)OCC(=O)NCC(F)(F)F)c1 | 0.99 | 37 | -1.6 | 71 | i | 13 | -3
Cc1ccc(C(=O)OCC(=O)NC(=O)c2cccn2C)cc1 | 0.85 | 101 | -0.7 | 102 | i | -25 | -4
O=C1N(Cc2ccccc2)CCCC12CCCN(Cc1ccccc1)C2=O | 0.99 | 101 | -2.0 | 106 | i | 50 | -2
O=C(CNc1cc(S(=O)(=O)N2CCCC2)ccc1OCC(F)(F)F)Nc1ccc(SC(F)F)cc1 | 0.9 | 103 | -0.5 | 140 | i | -29 | -8
CC(C)(C)C1CCC(=NNC(=O)c2cc(-c3ccccc3)n[nH]2)CC1 (stereo not drawn) | 0.81 | 86 | -1.8 | 76 | i | -21 | -4
Cc1cc(C)n(-c2nc(NC(C)C)nc(NC(C)C)n2)n1 | 0.48 | 104 | -1.7 | 82 | i | -39 | -8
CCn1c(SCC(=O)N2CCOCC2)nnc1-c1cccs1 | 0.92 | 100 | -1.7 | · | i | · | -4
CC(=O)c1cccc(NC(=O)c2ccc(N(Cc3ccccc3C)S(C)(=O)=O)cc2)c1 | 0.9 | 104 | -1.5 | 82 | i | 46 | -6
COc1ccc([N+](=O)[O-])cc1NC(=O)c1ccc(CN(c2ccc(C)c(C)c2)S(C)(=O)=O)cc1 | 1.1 | 99 | -0.6 | 147 | i | 27 | -9
Oc1ccccc1-c1csc(-c2ccccc2)n1 | 0.94 | 98 | · | · | i | · | -8
Cc1nnc(-c2ccccc2)nc1N1CCOCC1 | 0.94 | 107 | -1.6 | 117 | i | 29 | -9
Nc1nnc(-c2ccccc2)c(-c2ccccc2)n1 | 0.99 | 104 | -1.1 | 120 | i | -56 | -4
CCOC(=O)c1c(NC(=O)c2nc3n(n2)C(C(F)F)CC(C)N3)sc2c1CCCC2 (stereo not drawn) | 0.81 | 105 | 0.4 | 87 | i | -12 | -9
COc1ccccc1N(C)S(=O)(=O)c1ccc(C(=O)O)cc1 | 0.95 | 100 | · | · | i | · | -4
CC1CCN(C(=S)Nc2ccc3nc4n(c(=O)c3c2)CCCCC4)CC1 | 0.91 | 106 | -3.8 | 123 | i | -6 | 3
Fc1ccc(-c2nnc(SCc3ncc(-c4ccccc4)o3)n2CC2CCCO2)cc1 (stereo not drawn) | 0.93 | 107 | -1.6 | 100 | i | -23 | -11
Cc1ccc(C(=O)OCC(=O)Nc2sc3c(c2C#N)CCCC3)cc1NC(=O)c1ccco1 | 1 | 101 | -1.9 | 185 | i | 29 | 0
Cc1cc(-c2ccccc2)n2ncc(C#N)c2n1 | 0.92 | 98 | -0.2 | · | i | · | 0
CC1CCCC(NC(=O)COC(=O)[C@@H]2CC(O)CN2S(=O)(=O)c2ccc3c(c2)OCCO3)C1C (stereo partly drawn) | 0.99 | 106 | -0.2 | · | i | · | -3
O=C(CSc1nc2ccccc2n1-c1ccccc1)NCC1CCCO1 (stereo not drawn) | 1.1 | 103 | -2.0 | 99 | i | -6 | -11
C=CCn1c(SC(C)C(=O)NCc2ccc3c(c2)OCO3)nnc1C1CCCCC1 (stereo not drawn) | 0.81 | 93 | -1.4 | 112 | i | -42 | 97*
O=C1c2ccccc2-c2ccc(C(=O)N3CCOCC3)cc21 | 1 | 115 | 0.4 | 102 | i | -23 | -7
CCOC(=O)Cn1c(N2CCOCC2)nc2c1c(=O)[nH]c(=O)n2C | 1 | 102 | -2.6 | 84 | i | 0 | -1
CS(=O)(=O)N(CC(=O)NCCc1ccccc1)C1CCCCC1 | 1.1 | 98 | -3.0 | 62 | i | 32 | 2
Cc1ccc(/C=N/N=C2/NC(=O)C(CC(=O)Nc3ccc(Cl)cc3)S2)o1 (stereo not drawn) | 1.1 | 109 | 0.4 | · | i | · | -11

(further entries)
SMILES | HSV augment primary fold | RGS16-Gao HTS | GALR2 ag | INS promoter inh cell count | HSV augment | INS promoter inh | PKD1 kinase inh
CCC(C)(C)n1nnnc1C(c1cccs1)N1CCN(Cc2ccccc2)CC1 (stereo not drawn) | 1.2 | 93 | -3.1 | · | i | · | -1
Cc1ccc(S(=O)(=O)NNC(=O)c2ccccc2O)cc1 | 0.93 | 103 | 1.0 | 148 | i | 26 | -13
Cc1ccc(-n2cc(C(C)(C)C)[nH]c2=S)cc1 | 1 | 85 | -0.7 | · | i | · | -12
O=C(N/N=C/c1ccc(-c2ccccc2[N+](=O)[O-])o1)c1cncc(Br)c1 | 1.1 | 23 | -1.1 | · | i | · | -9
COC(=O)c1ccc(C(C(=O)NC2CCCCC2)N(Cc2ccc(F)cc2)C(=O)Cc2cccs2)cc1 (stereo not drawn) | 1.2 | 105 | -1.3 | 89 | i | -44 | -4
CC(C)CNC(=O)c1cc([N+](=O)[O-])ccc1N1CCCCC1 | 0.97 | 96 | -2.8 | 87 | i | -27 | -6
CC(=O)c1cccc(CN2CCCC(CCC(=O)NCc3ccc(F)c(F)c3)C2)c1 (stereo not drawn) | 0.84 | 106 | · | 129 | i | 15 | -1
Cc1cc(S(=O)(=O)N2CCN(c3ccccc3C)CC2)ccc1F | 0.83 | 106 | -0.7 | 103 | i | -13 | -7
O=C(O)c1cc(NS(=O)(=O)c2ccc(NC3CCCCC3)c([N+](=O)[O-])c2)cc(C(=O)O)c1 | 1 | 104 | · | · | i | · | 2
Cc1ccc(S(=O)(=O)N2CCOCC2)cc1C(=O)Nc1ccc(-c2cn3ccsc3n2)cc1 | 0.95 | 100 | -0.1 | 105 | i | -23 | -3
O=C(Oc1ccc(F)cc1C(=O)/C=C/c1cccs1)c1cccc([N+](=O)[O-])c1 | 0.55 | 100 | 39* | 90 | i | 0 | -1
CCNC(=S)/N=C(\N)Nc1nc(C)c2cc(C)ccc2n1 | 0.85 | 113 | · | · | i | · | 1
CCCN(CCC)CC(O)Cn1c2ccccc2c2ccccc21 (stereo not drawn) | 0.75 | 95 | · | 91 | i | -14 | 1
Cc1c(C(=O)O)nnn1-c1nonc1N | 0.91 | 95 | · | · | i | · | -4
Cn1c2ccccc2c2cnn(CC(=O)Nc3ccc(Cl)cc3)c(=O)c21 | 0.9 | 107 | · | · | i | · | ·
COc1nn(C(C)C(=O)N2N=C(C(F)F)CC2(O)C(F)F)cc1[N+](=O)[O-] (stereo not drawn) | 0.98 | 105 | -1.9 | 113 | i | -5 | 3
CCCCOC(=O)Nc1nnc(CCOCC)s1 | 0.99 | 98 | -3.6 | 115 | i | 41 | 3
NS(=O)(=O)c1ccc(CCNC(=O)COC(=O)CN2C(=O)C3CCCCC3C2=O)cc1 (stereo not drawn) | 0.99 | 106 | · | · | i | · | -9
